High-throughput results: PubChem BioAssay, several laboratories
rRNA inh HTS: inhibitors of bacterial rRNA selective over humanized ribosomes | 1.6% of 350,000 active | AID 720706 | GFP signal change (wild-type ribosome), % (test concentration not listed) | E. coli WT GFP vs humanized-ribosome RFP mutants, fluorescence, 24 h; active compounds read low; DMSO median 0, no signal -100;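 active = significant combined selectivity score with lowered wild-type GFP, culture density cut under 30%, mutant RFP and density less affected; inactive = any of these conditions unmet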; also: one replicate is shown; some compounds called inactive have numbers as strong as hits
Vif A3G: inhibitors of Vif binding to APOBEC3G peptide, primary screen, biochemical, TR-FRET, GST-Vif 1-94, biotin-A3G peptide, dose response retest (AID 1117319). TR-FRET GST-Vif / biotin-A3G peptide binding; higher % means a stronger effect; test concentration not given here; strong numbers were not always called active. 0.57% of 260,000 active. inhibition, %, or IC50 in µM where a hit was titrated;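 active = above the screen mean plus three standard deviations and confirmed in dose response; inconclusive = results disagree or hit not tested in dose response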;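 also: Vif residues 1-94 fused to GST binding biotinylated APOBEC3G peptide 110-148; 0% = full assay without inhibitor and 100% = GST in place of GST-Vif; retest series ran down from 100 µM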
Bfl-1 A1 inh: inhibitors of the anti-apoptotic protein A1, read as caspase activation. MEF A1-2A-BIM cells, Caspase-Glo 3/7 luminescence, 3 h; percent of clofoctol response, vehicle zero. 0.066% of 330,000 active. caspase activation, % (concentration not given with the values). AID 2462;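 active = over half of replicate activation scores above 10%, or exactly half above 10 with the replicate mean above 10; inconclusive = replicate mean below 10 yet half the replicates above 10; inactive = over half of replicates below 10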;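 also: wells of about 30 µL received 50 nL stock; many hits fall short of the cut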
T cruzi repl: T. cruzi replication inhibition. T. cruzi beta-gal in NIH3T3, luminescence, 90 h. inhibition, % (test concentration not listed). 1.4% of 300,000 active;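 active = mean inhibition across valid replicates above about 55%, limit read from the data; inconclusive = mean below that limit but half or more replicates reach it; inactive = mean below it, under half of replicates reach it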;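 also: signal also drops with host cell toxicity which is not excluded here; 0% = plate median of DMSO wells and 100% = zero luminescence signal; higher percent means less beta-gal luminescence so fewer parasites; stock transfer was 50 nL into about 50 µL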
Calb FLC: C. albicans growth modulation with fluconazole; AID 1979; growth inhibition, % (test concentration not listed); C. albicans CaCi-2 (fluconazole-resistant clinical isolate) + fluconazole, Alamar Blue growth, 48 h; 0.57% of 300,000 active;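 active = most replicates above 75%; inconclusive = exactly half above 75%; inactive = most below 75%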;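 also: all wells also contain fluconazole at 8 µg/ml as a sub-toxic cotreatment; 0% = median of DMSO wells and 100% = median of geldanamycin control wells; wells of about 8 µL received 7.5 nL stock; the first replicate is given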
AF4-AF9 inh: blocks AF4 peptide binding to human AF9 | P42568 | AlphaScreen, biotin-AF4 peptide binding to FLAG-AF9 | inhibition, % at 10 µM | 0.47% of 350,000 active | AID 651704;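 active = every replicate reaching a set inhibition limit, whatever the replicate mean, cut at about 25% in these data; inconclusive = mean inhibition reaches that limit but some replicates miss it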;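 also: 0% = plate neutral control median and 100% = total signal loss; the record names both 10 and 1 µM as test concentration; the first replicate is given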
Target sequence (P42568 whole entry, looked up): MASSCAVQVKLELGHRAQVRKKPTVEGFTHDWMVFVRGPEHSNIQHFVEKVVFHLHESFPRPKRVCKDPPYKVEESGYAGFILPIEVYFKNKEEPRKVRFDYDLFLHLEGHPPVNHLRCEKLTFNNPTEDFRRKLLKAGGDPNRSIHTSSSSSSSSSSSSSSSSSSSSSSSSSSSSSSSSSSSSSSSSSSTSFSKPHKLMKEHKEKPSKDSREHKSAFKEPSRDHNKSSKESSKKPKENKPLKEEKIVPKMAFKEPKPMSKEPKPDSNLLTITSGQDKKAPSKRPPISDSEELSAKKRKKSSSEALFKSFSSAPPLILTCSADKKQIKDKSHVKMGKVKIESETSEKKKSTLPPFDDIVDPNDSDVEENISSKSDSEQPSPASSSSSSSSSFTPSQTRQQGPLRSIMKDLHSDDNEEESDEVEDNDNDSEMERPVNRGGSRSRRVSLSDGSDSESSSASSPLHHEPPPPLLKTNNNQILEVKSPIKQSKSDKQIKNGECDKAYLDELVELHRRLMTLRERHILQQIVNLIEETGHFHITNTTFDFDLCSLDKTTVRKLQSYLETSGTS
Beta apoptosis: blocks beta cell apoptosis. INS-1E cytokine-induced death, ATP luminescence, 48 h; percent of positive-control rescue, neutral wells zero. protection from apoptosis, % (concentration not given with the values). 0.8% of 300,000 active;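 active = all replicates at 75% or more, or half of them and the mean; inconclusive = half reach 75% but not the mean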;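 also: 0% = cytokine-treated negative control wells and 100% = positive control rescue; higher means more ATP so stronger rescue from cytokine killing; wells of about 40 µL received 100 nL stock; the first replicate is given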
RanGTP-Impb inh: disruptors of Ran-importin-beta complex formation – biochemical, FRET, CFP-Ran, YFP-importin-beta, homogeneous, primary screen. cell-free CFP-Ran/YFP-importin-beta FRET ratio. inhibition, % (test concentration not listed). 1.1% of 300,000 active. AID 2216;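 active = most replicates above 15%; inconclusive = exactly half above 15%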;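 also: 0% = DMSO wells and 100% = Ran loaded with GDP instead of GTP; wells of about 40 µL received 100 nL stock; the first replicate is given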
rRNA inh HTS OD600: second read-out of rRNA inh HTS, no call of its own (marks repeat the call); OD600 change, %; measured here: OD600 growth;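 optical density of the mix in the first replicate; 0 = DMSO median and -100 = no signal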
rRNA inh HTS RFP: also measured in rRNA inh HTS; calls as there; RFP signal change, %; measured here: RFP humanized mutant strains;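 first replicate; 0 = DMSO median and -100 = no signal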
* hit, by the source's call. Not all compounds are listed (hit frequency here may not be typical).

What do the screens show for `O=C(C1CCN(S(=O)(=O)c2cccc3nsnc23)CC1)N1CCCc2ccccc21`?
Vif A3G: 7%; Bfl-1 A1 inh: -0.3; T cruzi repl: 6; Calb FLC: -101; Beta apoptosis: -12; RanGTP-Impb inh: 1.3

How did Cc1c(C(=O)NCCN2C(=O)S/C(=C\c3cccs3)C2=O)cccc1[N+](=O)[O-] do in these assays?
rRNA inh HTS: 3; Vif A3G: 21%; Bfl-1 A1 inh: 3.0; T cruzi repl: 2; Calb FLC: 3; AF4-AF9 inh: 2.2; Beta apoptosis: 0; RanGTP-Impb inh: 0.7; rRNA inh HTS OD600: 26; rRNA inh HTS RFP: 0.5

What do the screens show for `COc1ccc(N(CC(=O)NCCSC2CCCCC2)S(C)(=O)=O)c(OC)c1`?
rRNA inh HTS: -23; Vif A3G: 2%; Bfl-1 A1 inh: -1.4; T cruzi repl: 6; Calb FLC: -32; AF4-AF9 inh: 1.8; Beta apoptosis: -1; RanGTP-Impb inh: 1.5; rRNA inh HTS OD600: -9; rRNA inh HTS RFP: 13

How did C/C(Cl)=C/Cn1c(NCCCn2ccnc2)nc2c1c(=O)[nH]c(=O)n2C do in these assays?
Vif A3G: -6%; Bfl-1 A1 inh: 0.1; T cruzi repl: -14; Calb FLC: -9; Beta apoptosis: 3; RanGTP-Impb inh: -2.6

Results for CC(C)C(NS(=O)(=O)c1cccc(C(F)(F)F)c1)C(=O)O (stereo unspecified) ?
rRNA inh HTS: 3; Vif A3G: 11%; Bfl-1 A1 inh: -1.1; T cruzi repl: 8; Calb FLC: 3; AF4-AF9 inh: -0.7; Beta apoptosis: -10; RanGTP-Impb inh: 1.6; rRNA inh HTS OD600: 6; rRNA inh HTS RFP: -1.9

Results for CCN1C(=O)CC2(C[N+]3(C)CCC2CC3)C1=O (stereo unspecified) ?
rRNA inh HTS: 22; Bfl-1 A1 inh: 1.1; T cruzi repl: -6; Calb FLC: 8; AF4-AF9 inh: 9.1; Beta apoptosis: -1; RanGTP-Impb inh: -1.2; rRNA inh HTS OD600: 9; rRNA inh HTS RFP: 0.2

How did Cc1ccc2nc(SCC(=O)N3CCCCCC3)nc(=O)n2c1 do in these assays?
rRNA inh HTS: 9; Vif A3G: 0%; Bfl-1 A1 inh: -0.1; T cruzi repl: -1; Calb FLC: -1; AF4-AF9 inh: 5.4; Beta apoptosis: 5; RanGTP-Impb inh: 0.3; rRNA inh HTS OD600: 8; rRNA inh HTS RFP: -0.6

How did COc1ccccc1N1C(=O)C2C3CC(c4ccccc4)C(C3)C2C1=O (stereo unspecified) do in these assays?
rRNA inh HTS: -13; Vif A3G: -7%; Bfl-1 A1 inh: 1.1; T cruzi repl: 7; Calb FLC: 5; AF4-AF9 inh: 3.7; Beta apoptosis: -5; RanGTP-Impb inh: -1.9; rRNA inh HTS OD600: -12; rRNA inh HTS RFP: -8.2

What do the screens show for `O=C(Nc1cccc(-c2nc3ncccc3o2)c1)c1ccco1`?
Vif A3G: -6%; Bfl-1 A1 inh: 0.0; T cruzi repl: 69*; Calb FLC: 0; Beta apoptosis: -11; RanGTP-Impb inh: 0.4

What do the screens show for `COc1ccc(C2CC(c3cccs3)=NN2C(=O)CSc2nc(=O)n3cc(C)ccc3n2)cc1` (stereo unspecified)?
rRNA inh HTS: -5; Vif A3G: -1%; Bfl-1 A1 inh: 0.5; T cruzi repl: -11; Calb FLC: 2; AF4-AF9 inh: 9.2; Beta apoptosis: 0; RanGTP-Impb inh: 0.3; rRNA inh HTS OD600: -10; rRNA inh HTS RFP: 4.7

How did COCCN(Cc1cc2cc(C)c(C)cc2nc1Cl)C(=O)N1CCOCC1 do in these assays?
rRNA inh HTS: 16; Vif A3G: inconclusive; Bfl-1 A1 inh: 1.2; T cruzi repl: -3; Calb FLC: 15; AF4-AF9 inh: -1.0; Beta apoptosis: -7; RanGTP-Impb inh: 0.3; rRNA inh HTS OD600: 22; rRNA inh HTS RFP: -0.4

How did COc1ccc(/C=N/n2nnnc2N)c(OC)c1 do in these assays?
rRNA inh HTS: -2; Vif A3G: -7%; Bfl-1 A1 inh: -0.6; T cruzi repl: 22; Calb FLC: 0; AF4-AF9 inh: -6.3; Beta apoptosis: -7; RanGTP-Impb inh: -4.5; rRNA inh HTS OD600: 4; rRNA inh HTS RFP: -1.4

What do the screens show for `CCN1C(=O)N/C(=C/c2ccc(C)o2)C1=O`?
rRNA inh HTS: 22; Vif A3G: 1%; Bfl-1 A1 inh: -0.3; T cruzi repl: -8; Calb FLC: inconclusive; AF4-AF9 inh: -9.3; Beta apoptosis: -15; RanGTP-Impb inh: -4.1; rRNA inh HTS OD600: 14; rRNA inh HTS RFP: 1.7

Results for COc1ccc(S(=O)(=O)NC(C)(C)C)cc1-c1nnc2c3ccccc3c(C)nn12 ?
Vif A3G: 3%; Bfl-1 A1 inh: -0.8; T cruzi repl: 15; Calb FLC: 5; RanGTP-Impb inh: inconclusive

How did Cn1c(=O)c2c(Nc3ccc(F)cc3)cc(=O)n(-c3ccccc3)c2n(C)c1=O do in these assays?
rRNA inh HTS: 12; Bfl-1 A1 inh: 0.9; T cruzi repl: 21; Calb FLC: 0; AF4-AF9 inh: -4.4; Beta apoptosis: 1; RanGTP-Impb inh: 2.4; rRNA inh HTS OD600: 4; rRNA inh HTS RFP: -2.1

What do the screens show for `CC(=O)NS(=O)(=O)c1ccc(NC(=O)CN2C(=O)C3C4C=CC(C4)C3C2=O)cc1` (stereo unspecified)?
Vif A3G: inconclusive; Bfl-1 A1 inh: -0.8; T cruzi repl: -15; Calb FLC: 4; Beta apoptosis: 6; RanGTP-Impb inh: 0.4

What do the screens show for `CN(Cc1cccs1)C(=O)Cc1csc(-c2ccccc2)n1`?
rRNA inh HTS: -29; Vif A3G: 11%; Bfl-1 A1 inh: 1.6; T cruzi repl: 4; Calb FLC: -4; AF4-AF9 inh: -2.9; Beta apoptosis: -10; RanGTP-Impb inh: inconclusive; rRNA inh HTS OD600: -29; rRNA inh HTS RFP: -2.4

Results for Cc1ccc2c(c1)nnn2C1CCN(CC(=O)NCCc2nc3ccccc3[nH]2)CC1 ?
Vif A3G: -4%; Bfl-1 A1 inh: 0.0; T cruzi repl: -5; Calb FLC: -4; RanGTP-Impb inh: 4.5

How did COc1ccc(-c2noc(CCC(=O)NCCCN3CCC(Cc4ccccc4)CC3)n2)cc1 do in these assays?
Vif A3G: 8%; Bfl-1 A1 inh: 1.6; T cruzi repl: 11; Calb FLC: -7; Beta apoptosis: 33; RanGTP-Impb inh: -2.2

What do the screens show for `Cc1ccc(C2c3[nH]c4ccccc4c3C[C@H]3C(=O)N(c4ccccc4C(=O)NCCCN4CCOCC4)C(=O)N23)cc1` (stereo partly specified)?
Bfl-1 A1 inh: -0.7; T cruzi repl: 16; Calb FLC: 29; AF4-AF9 inh: 7.6; Beta apoptosis: -3; RanGTP-Impb inh: -3.7

Results for O=C(O)C1CC(=O)N(CCc2ccccc2)C1 (stereo unspecified) ?
Vif A3G: 22%; Bfl-1 A1 inh: -0.4; T cruzi repl: -2; Calb FLC: -8; Beta apoptosis: 3; RanGTP-Impb inh: 2.1

How did COc1ccc(N(CC(=O)NCc2ccc(F)cc2)C(=O)CCC(=O)Nc2ccccn2)cc1 do in these assays?
rRNA inh HTS: 5; Bfl-1 A1 inh: 0.3; T cruzi repl: 7; Calb FLC: -1; AF4-AF9 inh: -18; Beta apoptosis: 3; RanGTP-Impb inh: 1.7; rRNA inh HTS OD600: 9; rRNA inh HTS RFP: 1.5

Results for COC(=O)c1ccccc1NC(=O)c1cc(C2CC2)on1 ?
rRNA inh HTS: 2; Vif A3G: -1%; Bfl-1 A1 inh: -0.5; T cruzi repl: -1; Calb FLC: 0; AF4-AF9 inh: -0.6; Beta apoptosis: -6; RanGTP-Impb inh: -2.4; rRNA inh HTS OD600: 5; rRNA inh HTS RFP: -4.2

How did C=CCN(c1ccc(C(=O)Nc2cccc([N+](=O)[O-])c2)cc1)S(C)(=O)=O do in these assays?
rRNA inh HTS: 4; Vif A3G: -6%; Bfl-1 A1 inh: 0.3; T cruzi repl: -3; Calb FLC: -7; AF4-AF9 inh: 1.4; Beta apoptosis: -5; RanGTP-Impb inh: -2.4; rRNA inh HTS OD600: 6; rRNA inh HTS RFP: 2.9

What do the screens show for `COc1ccc(CN2CCC(n3nccc3NC(=O)C3CC3)CC2)cc1O`?
rRNA inh HTS: 14; Bfl-1 A1 inh: 0.6; T cruzi repl: -13; Calb FLC: -1; AF4-AF9 inh: -3.4; Beta apoptosis: -7; RanGTP-Impb inh: -1.4; rRNA inh HTS OD600: 7; rRNA inh HTS RFP: -1.2

Results for COc1ccc(-c2[nH]ncc2CN(C)CCN2CCOCC2)cc1F ?
rRNA inh HTS: 23; Bfl-1 A1 inh: -0.7; T cruzi repl: -7; Calb FLC: -18; AF4-AF9 inh: -0.5; RanGTP-Impb inh: 2.6; rRNA inh HTS OD600: 22; rRNA inh HTS RFP: 1.1

What do the screens show for `Cc1ccc(N(C(=O)c2csnn2)C(C(=O)NCc2ccccc2)c2cccnc2)cc1` (stereo unspecified)?
rRNA inh HTS: 2; Bfl-1 A1 inh: 0.2; T cruzi repl: 2; Calb FLC: -3; AF4-AF9 inh: 4.7; Beta apoptosis: 0; RanGTP-Impb inh: -1.7; rRNA inh HTS OD600: 5; rRNA inh HTS RFP: 0.9

What do the screens show for `CC(C)(O)c1ccc2c(c1)CCC1C(C)(C(=O)O)CCCC21C` (stereo unspecified)?
rRNA inh HTS: 2; Bfl-1 A1 inh: -1.2; T cruzi repl: -17; Calb FLC: -8; AF4-AF9 inh: -2.4; RanGTP-Impb inh: inconclusive; rRNA inh HTS OD600: 1; rRNA inh HTS RFP: 5.2

How did Cc1ccc(C(C)C)c(OCCNC(=S)Nc2cccc3ccccc23)c1 do in these assays?
Vif A3G: -4%; Bfl-1 A1 inh: -0.7; T cruzi repl: inconclusive; Calb FLC: 32; Beta apoptosis: 11; RanGTP-Impb inh: 0.1

Results for Cc1ccc(CN2CCN(Cc3ccc(OC(C)C)cc3)CC2CCO)o1 (stereo unspecified) ?
rRNA inh HTS: 5; Vif A3G: 15%; Bfl-1 A1 inh: 0.8; T cruzi repl: 6; Calb FLC: -3; AF4-AF9 inh: -4.4; Beta apoptosis: -1; RanGTP-Impb inh: -1.4; rRNA inh HTS OD600: -2; rRNA inh HTS RFP: -4.7

Results for Cc1ccc(NC(=O)CSc2nnc(COc3ccc(C#N)cc3)n2-c2ccccc2)cc1C ?
Vif A3G: 2%; Bfl-1 A1 inh: -0.5; T cruzi repl: -8; Calb FLC: -8; Beta apoptosis: 7; RanGTP-Impb inh: -1.5

How did COc1cc(/C=N/Nc2nc(N3CCCC3)nc(N3CCCC3)n2)ccc1O do in these assays?
Vif A3G: inconclusive; Bfl-1 A1 inh: 0.1; T cruzi repl: -5; Calb FLC: 0; Beta apoptosis: -8; RanGTP-Impb inh: 2.5
